Source: PubChem (National Center for Advancing Translational Sciences (NCATS))
VDR inhibitor = blocks the human vitamin D receptor; P11473; Potency, µM, for the others: max response, negative = inhibition, actives largely listed as inhibitors; 400,000 tested, 0.93% active; AID 504847; VDR-SRC2-3 peptide fluorescence polarization, 2 h; active = well fitted inhibition curve with a large enough effect; inconclusive = small, poorly fitted or top-dose-only effect, or another doubt; inactive = no such curve, though single readings can be large or run the other way; also: series mostly up to about 120 µM
Target sequence (P11473 whole entry, looked up): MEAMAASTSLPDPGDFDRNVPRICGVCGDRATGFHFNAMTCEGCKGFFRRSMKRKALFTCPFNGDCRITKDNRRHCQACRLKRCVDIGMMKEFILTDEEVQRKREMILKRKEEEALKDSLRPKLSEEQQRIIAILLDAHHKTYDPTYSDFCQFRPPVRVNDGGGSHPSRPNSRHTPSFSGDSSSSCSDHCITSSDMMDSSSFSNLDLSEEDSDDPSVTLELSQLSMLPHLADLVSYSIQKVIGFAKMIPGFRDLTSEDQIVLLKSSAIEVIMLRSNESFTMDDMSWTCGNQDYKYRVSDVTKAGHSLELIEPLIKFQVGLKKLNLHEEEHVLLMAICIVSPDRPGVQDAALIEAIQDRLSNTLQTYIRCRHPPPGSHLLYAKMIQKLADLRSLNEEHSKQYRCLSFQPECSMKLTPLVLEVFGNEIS
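Fluorescence polarization assay measuring small-molecule disruption of VDR binding to the coregulator peptide SRC2-3. Compounds were pin-transferred (23 nl) into the reagent mix and incubated 2 h at room temperature before reading.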
An asterisk follows results filed as active; ? = inconclusive. % is scaled to controls: 0 for no effect and ±100 for the full control effect; potency is read from the fitted curve at half-maximal effect.

VDR inhibitor | Structure
-2.2% | O=S(=O)(NCC(c1ccc2c(c1)OCO2)N1CCOCC1)c1ccc(F)cc1 (stereo not given)
8.5% | Cc1cc(O)c(C=O)c(O)c1C(=O)O
15.8% | CC1CCC(NC(=O)c2ccc(CNc3c(NC4CCCCC4)c(=O)c3=O)cc2)CC1 (stereo not given)
-9.7% | Cc1ccc(OCC(=O)Nc2ccc(S(=O)(=O)Nc3cc(C)nc(C)n3)cc2)cc1
2.0% | CCN(CC)CCC(=O)Nc1cccc2c1C(=O)c1ccccc1C2=O
-0.8% | Cc1cc(C)n(-c2nc3ccccc3nc2Nc2ccc3[nH]c(=O)[nH]c3c2)n1
12.0% | O=c1cc(CO)[nH]cc1OCc1ccccc1
5.4% | CCN1C(=O)[C@H]2[C@@H](c3ccc(-c4ccc(C(C)=O)cc4)c(OC)c3)N3CCCC[C@@]3(C(=O)OC)[C@H]2C1=O
-3.1% | O=C(NCc1cccc(Cl)c1)C1CCN(c2nnc(N3CCCC3=O)s2)CC1
9.7% | COc1cccc(/C=N/NC(=O)C(c2ccncc2)N2CCOCC2)c1 (stereo not given)
2.9% | CCOC(=O)C1CCCN(CCC(=O)Nc2c(C(=O)OC)[nH]c3cc(OC)ccc23)C1 (stereo not given)
-1.4% | Cc1cc(NC(=O)CSc2nnc(-c3cccnc3)n2N)no1
? | Cn1cccc1C(=O)N1CCC[C@@]2(CCN(Cc3ccc(C#N)cc3)C2)C1
-3.8% | O=C(NCc1ccc(F)cc1)C(=O)NCC1OCCN1C(=O)c1cccs1 (stereo not given)
5.7% | CCCNC(=O)c1cc(C)no1
-4.0% | CCS(=O)(=O)c1ccc(Sc2nncn2C)c([N+](=O)[O-])c1
21.4% | CCCCNC(=O)Cn1cnc2ccc(S(=O)(=O)N3CCC(C)CC3)cc2c1=O
2.5% | Cc1cc(C(=O)CN2C(=O)NC3(CCCCC3)C2=O)c(C)n1Cc1ccco1
-13.5% | O=C(Cn1c2[n+](c3ccc(C(F)(F)F)cc31)CCCCC2)c1cccc([N+](=O)[O-])c1
0.4% | CCCCCCCCC(=O)N/N=C/c1cccc(Br)c1
7.2% | COc1ccc(CCN(C)C(=O)c2c(C)nn(-c3ccccc3)c2C)cc1OC
-6.3% | CCOC(=O)COc1ncn(-c2ccccc2)n1
-4.6% | CC1CCN(S(=O)(=O)c2cn(CC(=O)Nc3cccc(C#N)c3)cn2)CC1
19.3% | COc1ccc(C(=O)NN(C)c2nc(C(F)(F)F)nc3ccccc23)cc1
-18.0% | Cc1[nH]c2ccccc2c1/C=N/NC(=O)CNC(=O)Cc1ccccc1
-10.8% | COc1ccc(OC)c(C(C)NC(=O)Nc2cccc(C(C)=O)c2)c1 (stereo not given)
-12.7% | COc1cc(Cl)c(C)cc1NC(=O)COC(=O)c1cc[n+]([O-])cc1
13.1% | CC1CC(C(F)F)n2nc(C(=O)Nc3sc4c(c3C#N)CCC(C(C)(C)C)C4)nc2N1 (stereo not given)
5.4% | CCc1cccc(NC(=O)Cn2c(-c3ccc(F)cc3)cc(C(C)=O)c2C)c1
10.1% | CCC(C(=O)Nc1cc(C)cc(C)n1)c1ccccc1 (stereo not given)

4 structures out of the list, ordered by molecular weight, ascending:
VDR inhibitor | Structure
8.5% | Cc1cc(O)c(C=O)c(O)c1C(=O)O
2.0% | CCN(CC)CCC(=O)Nc1cccc2c1C(=O)c1ccccc1C2=O
7.2% | COc1ccc(CCN(C)C(=O)c2c(C)nn(-c3ccccc3)c2C)cc1OC
2.9% | CCOC(=O)C1CCCN(CCC(=O)Nc2c(C(=O)OC)[nH]c3cc(OC)ccc23)C1 (stereo not given)

(further entries)
VDR inhibitor | Structure
12.7% | O=C(NCc1cccs1)c1ccc(CSc2nc3ccncc3n2Cc2ccccc2)cc1
0.1% | Cc1cc(=O)oc2cc(OCC(=O)N3CCN(C(=O)C4COc5ccccc5O4)CC3)c(Cl)cc12 (stereo not given)
-14.0% | Cc1ccc(NC(=O)CN(C)C(=O)CNC(=O)c2cccs2)cc1
-3.9% | COc1ccc(NC(=O)CCCNC(=O)c2ccc(Cl)cc2)cc1S(=O)(=O)N1CCCCC1
-16.0% | COc1ccc(-c2cc(=O)oc3c(C)c(OCC(=O)NCC4CCC(C(=O)O)CC4)ccc23)cc1 (stereo not given)
8.5% | Cc1ccc(S(=O)(=O)N2CCN(C(=O)c3c(-c4ccccc4)noc3C)CC2)c(C)c1
-15.4% | CC1CC(C)CN(CCC(=O)Nc2ccc3c(c2)CCC3)C1 (stereo not given)
8.7% | Cc1ccc(OCCn2nc3ccccc3n2)c(C)c1
13.2% | O=C(NCCCNC(=O)c1ccccc1Cl)c1cnccn1
10.8% | CCC1CCCCN1CCCNC(=O)c1ccc2c(=O)n(CCOC)c(=O)[nH]c2c1 (stereo not given)
-11.4% | CCCC(=O)Nc1nnc(/C=C/c2ccc(OC)cc2)s1
-23.2% | Cn1c(=O)oc2cc(S(=O)(=O)N3CCCC(C(=O)N4CCN(c5cccc(Cl)c5)CC4)C3)ccc21 (stereo not given)
-7.2% | COc1ccc(CCNC(=S)Nc2ccc(C)cc2C)cc1
0.4% | Cc1cc2c(cc(C(=O)OCC(=O)NCc3cccs3)n2C(C)C)o1
-1.7% | CN(C)/C=C1\C(=O)N(c2ccc([N+](=O)[O-])cc2)N=C1c1ccccc1
-20.7% | C#CCOCCOCCOCCNc1nc(N2CCN(C(=O)C(CCC(=O)O)n3cc(C(N)CC(C)C)nn3)CC2)nc(N2CCN(C(=O)C(Cc3cc4ccccc4[nH]3)n3cc(C(N)Cc4ccc(O)cc4)nn3)CC2)n1 (stereo not given)
19.9% | O=C(OCC(=O)N1CCOCC1)c1c(Cl)ccc(Cl)c1Cl
7.8% | CCNCC(=O)Nc1ccc(N2CCOCC2)cc1
-7.4% | CC(=O)c1ccc(NC(=O)/C=C/c2ccc(C)o2)cc1
-9.9% | CC(C)N=C(NS(=O)(=O)NC(=O)c1ccccc1)c1ccccc1
-24.3% | Nc1nonc1-n1nnc(C(=O)N/N=C/c2ccccc2Cl)c1COc1ccc(F)cc1
? | CCOc1cc(-c2ccc(OC(=O)c3ccc(OC)cc3)c(OC)c2)cc(=O)c2c(C)oc(C)c12
-11.4% | COc1ccc(-c2oc3ncn4nc(COc5ccc(C)cc5)nc4c3c2-c2ccc(OC)cc2)cc1
2.5% | CCOC(=O)C12CC1/C(=N\O)c1ccccc1O2 (stereo not given)
1.1% | Cc1ccc(-c2noc(CNC(=O)c3ccccc3)n2)cc1
-19.5% | COc1ccccc1N1C(=O)CC(N2CCN(c3ccc([N+](=O)[O-])cc3)CC2)C1=O (stereo not given)
-13.5% | O=C(CNC(=O)c1ccco1)Nc1ccc(F)cc1
5.4% | Cc1ccc(/C=N/N2CCN(c3ccccn3)CC2)o1
-5.1% | COCCNC(=O)C(c1ccc(OC)cc1)N(C(=O)Cn1nnc2ccccc21)c1cccnc1 (stereo not given)
-10.4% | COc1ccc(NS(=O)(=O)c2cc(NC(=O)Cc3cccs3)ccc2C)cc1
-8.7% | Cc1ccc(C)c(OCCC(=O)NNC(=O)Cn2nc(C)cc2C)c1
-8.2% | CC(=O)c1cccc(NC(=O)c2cnn3ccccc23)c1
-5.8% | Cc1nc(CN2CCN(C(=O)NC3(c4ccccc4)CC3)CC2)cs1
? | N#Cc1nc(COc2ccccc2F)oc1NCCc1ccccc1
7.2% | O=C(Nc1ccccc1)N1CC2(CCN(C(=O)c3cc(C(F)(F)F)cc(C(F)(F)F)c3)CC2)C1
9.8% | CCOc1ccccc1NC(=O)CSc1nc2c([nH]c3ccccc32)c(=O)n1-c1ccccc1
-27.8% | COc1cc(NS(=O)(=O)c2ccc(NC(=S)NC(=O)/C=C/c3ccc(OC)c(OC)c3)cc2)ncn1
-1.0% | COc1ccccc1/C=C1\SC(=O)N(CCC(=O)N2CCCCC2CCO)C1=O (stereo not given)
-5.0% | O=P(Cc1ccccc1O)(c1ccccc1)c1ccccc1
-3.3% | Cc1ccc2c(c1)C(=O)CC1(CCC(C(C)(C)C)CC1)O2 (stereo not given)
-17.3% | CCCc1cc(C(=O)N/N=C/c2cccn2C)cs1
-15.3% | Cc1ccc(C(=O)CN(CCC(=O)O)C(=O)c2ccncc2)cc1
5.5% | Cc1cccc(OCC(O)CN2CCc3ccccc3C2)c1 (stereo not given)
3.3% | COc1ccc(Cl)cc1NC(=O)CN(C1CCCCC1)S(C)(=O)=O
9.2% | O=C(COC(=O)c1cccs1)NCc1ccccc1
-12.5% | Cc1ccc(NC(=O)CN(C)S(=O)(=O)c2cccs2)cc1C
-19.1% | CSCC[C@H](NC(=O)OC(C)(C)C)C(=O)N/N=C/c1c(C)[nH]c(=O)[nH]c1=O
8.0% | Cc1ccccc1Nc1nc(N)nc(COC(=O)CCC(=O)c2ccc(F)cc2)n1
4.4% | CC(C)(C)c1cc(NC(=O)c2cccs2)no1
-9.2% | O=C1CC(C(=O)O)S/C(=N\N=C\c2ccc(Br)cc2)N1 (stereo not given)
11.3% | C=C(C)CSc1nc2sc3c(c2c(=O)n1-c1ccc(OC)cc1)CCN(C)C3
5.5% | COc1ccc(CN2C(=O)c3cccnc3C2=O)cc1S(=O)(=O)NCc1ccco1
10.2% | O=C(COC(=O)c1ccc(O)cc1)Nc1ccc2c(c1)OCCO2
-0.9% | CCn1cc(/C=C(/C#N)S(=O)(=O)c2ccccc2)cn1
-17.9% | CC1(c2ccccc2Cl)NC(=O)N(CC(=O)Nc2ccc(N3CCOCC3)cc2)C1=O (stereo not given)
-10.4% | COc1ccc(S(=O)(=O)NC2CC3CCC2C3)cc1Br (stereo not given)
-7.1% | O=C(O)c1ccc(N=Cc2c(O)ccc3ccccc23)cc1
8.5% | CC(NC(=O)c1ccc(S(=O)(=O)Nc2ccccc2)cc1)c1ccc(S(N)(=O)=O)cc1 (stereo not given)
-6.6% | COc1ccc(CNC(=O)C2CCN(S(=O)(=O)c3ccc(Br)s3)CC2)cc1
9.0% | O=C(O)c1ccc(/C=N/n2c(C3CCCCC3)n[nH]c2=S)cc1

By substructure, the compounds so far with bromine
VDR inhibitor | Structure
0.4% | CCCCCCCCC(=O)N/N=C/c1cccc(Br)c1
-9.2% | O=C1CC(C(=O)O)S/C(=N\N=C\c2ccc(Br)cc2)N1 (stereo not given)
-10.4% | COc1ccc(S(=O)(=O)NC2CC3CCC2C3)cc1Br (stereo not given)
-6.6% | COc1ccc(CNC(=O)C2CCN(S(=O)(=O)c3ccc(Br)s3)CC2)cc1

(more compounds)
VDR inhibitor | Structure
9.1% | Cc1cc(Cl)ccc1C(=O)C1CCCN(C(=O)c2ccc3ncccc3c2)C1 (stereo not given)
15.8% | COc1cc2c(cc1OC)C(COc1ccc3c(C)cc(=O)oc3c1)N(C(=O)c1ccccc1C)CC2 (stereo not given)
-20.6% | CCOC(=O)N1CCC(NC(=O)c2ccc3c(c2)N(Cc2ccccc2)C(=O)c2ccccc2S3(=O)=O)CC1
-8.9% | CCC(C)NC(=O)c1cn(CC)c2ccc(S(=O)(=O)N3CCc4ccccc4C3)cc2c1=O (stereo not given)
10.9% | CC(=O)Nc1ccc(S(=O)(=O)NCCCN2CCOCC2)cc1
-4.8% | Cc1ccc(S(=O)(=O)NCC(=O)NC2CCCCCC2)cc1
14.7% | COc1cc(OC)c2c(=O)cc(-c3ccccc3)oc2c1
-5.1% | COC(=O)c1ccccc1NC(=O)N1CCN(S(C)(=O)=O)CC1
-3.7% | COc1ccc(NC(=O)CN2CCCN(S(=O)(=O)c3ccc(F)cc3)CC2)c(OC)c1
-16.6% | Cc1ccc(NC(=O)CN2CCc3ccccc3C2)cc1C
-26.8% | COC(=O)CCCC1=CC2=C(c3ccccc3)C(=O)C(C)(OC(=O)C3CCCC3)C(=O)C2=CN1C1CC1 (stereo not given)
-19.8% | O=C(N/N=C/c1cc([N+](=O)[O-])ccc1O)NC12CC3CC(CC(C3)C1)C2
-2.5% | Fc1ccc(CN2CCCCCCC2)cc1F
-14.2% | O=[N+]([O-])c1cccc(S(=O)(=O)NCC2CC3CCC2C3)c1 (stereo not given)
-10.9% | COc1cccc(CN(C)C(=O)C2CCC(=O)N(Cc3cccc(F)c3)C2)c1 (stereo not given)
17.0% | CCOc1cc(CNCc2ccc3c(c2)OCO3)ccc1OC
-10.4% | N#Cc1c(N)nc2c(c1-c1ccc(Br)s1)CCCC2
-12.8% | COc1cccc(NC(=O)Cn2cc3c(n2)CCCCC3)c1
? | COC(=O)c1ccccc1NC(=O)c1nc(S(=O)(=O)Cc2ccccc2)ncc1Cl
-14.3% | COc1ccccc1N1CCN(c2ncnc3sc(C(=O)NCC4CCCO4)c(C)c23)CC1 (stereo not given)
-3.3% | COCCCNC(=O)Cn1cnc2c(OCc3ccccc3)ncnc21
-21.8% | CCc1cc(C(=O)N2CCN(c3ccccc3OC)CC2)sc1C
-20.1% | CCn1c(=O)cc(N2CCN(Cc3ccccc3)CC2)[nH]c1=O
1.1% | Cc1nn2c(-c3ccccc3)c(-c3ccccc3)nc2[nH]c1=O
0.6% | CN(C)CCSc1nnc2[nH]c3ccccc3c2n1
10.5% | CC(=O)c1ccc(N2CCN(C(=O)C3CCN(S(=O)(=O)c4ccc(F)cc4)CC3)CC2)cc1
-6.3% | Cc1ccccc1OCCC(=O)OCC(=O)NC1CCCC1
6.0% | CCOC(=O)C1CCN(C(=O)c2cc3sc(C)cc3n2C)CC1

Filtered by structure, the entries above containing a tert-butyl group
VDR inhibitor | Structure
13.1% | CC1CC(C(F)F)n2nc(C(=O)Nc3sc4c(c3C#N)CCC(C(C)(C)C)C4)nc2N1 (stereo not given)
-3.3% | Cc1ccc2c(c1)C(=O)CC1(CCC(C(C)(C)C)CC1)O2 (stereo not given)
-19.1% | CSCC[C@H](NC(=O)OC(C)(C)C)C(=O)N/N=C/c1c(C)[nH]c(=O)[nH]c1=O
4.4% | CC(C)(C)c1cc(NC(=O)c2cccs2)no1

An excerpt. The share of hits here may be higher or lower than overall.
